Sa helicase inh = blocks Staphylococcus aureus DNA helicase. inhibition, %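 (tested at about 80 µM)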. AID 485395. purified S. aureus helicase, fluorescence unwinding assay; about half of the hits fall short of the stated cut. 120,000 compounds, 0.05% hits;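 active means both duplicates at 50% or more, or one of them with a favoured structure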;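 further: 0% = mean of negative control wells and 100% = mean of positive control wells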
MgrA DNA FP = alters Staphylococcus aureus MgrA binding to DNA. fluorescence polarization. 84,000 compounds, 0.13% hits. AID 602314. inhibition, %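 (about 10 µg/mL by stock and volumes)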;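 active means above 50% in either of two replicates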;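 further: 0% = protein plus DNA without compound and 100% = DNA alone without protein; higher means less MgrA bound to DNA so lower polarization; one replicate is shown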
The depositor's hits bear a star; . = not tested or not shown; & = joins results of further samples.

SMILES	Sa helicase inh	MgrA DNA FP
COc1ccc(NC(=O)Cn2c(SCc3ccccc3F)nc3ccncc32)c(OC)c1OC	24	.
CN(C)c1ccc(-c2nc3cc(NC(=O)c4cccc(Br)c4)ccc3o2)cc1	.	-2.4
COc1ccc(C)cc1NC(=O)COC(=O)c1sc2nc(C)[nH]c(=O)c2c1C	-10	.
CCN1CCN(CCCNC(=O)COc2ccc3c(c2)C(=O)CC(C)(C)O3)CC1	14	.
COc1ccc2nc(NN=c3c(=O)c4ccccc4c3=O)sc2c1	11	.
Cc1ccc(-c2cc(C(=O)N3CCCC3)[nH]n2)cc1C	-24	.
CN(C)/C=C(\C#N)c1nnc(-c2ccccn2)n1C	.	-2.1
O=C(NC1CCCCC1)c1ccc(Cn2cc(Br)cn2)o1	13	.
COC(=O)CNC(=O)c1cccs1	-10	.
CCOc1ccc2oc(C(C)(C)C)c(C(=O)OC)c2c1	9	-0.9
COC(=O)c1cc(S(=O)(=O)N2CCn3c2nc2ccccc23)c[nH]1	-18	.
CCOc1ccc(C(=O)NC(C(=O)N2CCN(C)CC2c2ccccc2)C(C)C)cc1 (centres undefined)	-7	.
C=CCn1c(Cc2cccs2)nnc1SCC(=O)NC1CC1	10	2.1
Cn1c(SCCC(=O)O)nnc1-c1ccncc1	14	-21
CCCCn1nc(CC(=O)O)c2ccccc2c1=O	7	-1.5
O=C(CSc1nn(-c2ccccc2)c(=S)s1)N1N=CCC1c1ccccc1 (centres undefined)	10	-2.2
CC(CCC(=O)O)C1CCC2C3C(O)CC4CC(O)CCC4(C)C3CC(O)C12C (centres undefined)	-10	0.1
CCCn1cnc2sc3c(c2c1=O)CCCC3	-9	0.0
COc1cc(C(=O)NC(=S)NN2CCN(C)CC2)cc(OC)c1OC	-6	.
Cc1cc(=O)[nH]c(SCC(N)=O)n1	10	0.4
CC(C)(C)c1cc(C(=O)O)cc(C(C)(C)C)c1O	5	.
CC(=O)N1CCc2cc(C(O)CN3CCN(c4ccccc4)CC3)ccc21 (centres undefined)	7	.
CC(C)Nc1nc2cccnc2s1	.	-1.1
O=C(COc1ccccc1F)NC(=Nc1ccccc1)c1ccccc1	-8	-0.3
CCOC(=O)c1c(NC(=O)Cc2ccc(Cl)cc2)sc(C(=O)Nc2ccc(OC)cc2OC)c1C	.	-1.4
NC(=O)c1cccc(S(=O)(=O)N2CC(c3ccccc3)CC2=O)c1 (centres undefined)	-6	-1.8
COc1ccc(NC(=O)C2CCC(CNS(=O)(=O)c3cccc4nsnc34)CC2)cc1 (centres undefined)	5	.
c1ccc(Oc2nnc(-c3ccccc3)c3ccccc23)cc1	-3	-2.5
COc1ccc(C(C)C)cc1S(=O)(=O)N1CC(C)OC(C)C1 (centres undefined)	13	1.0
C=CCN(C1=NC(C)(C)C(=C)S1)c1ccc(C)cc1C	.	-2.0
Cc1[nH]c(-c2ccc(F)cc2)cc1C(=O)NCCCN1CCN(C2CCCCC2)CC1	5	1.6
N#CC1=C(N)SC(N)=C(C#N)C1c1ccccc1F	-144	-1.6
CC(=O)N1CCc2cc(N=Cc3ccc(O)cc3)ccc21	-2	-0.7
CC(NC(=O)c1ccccc1)C(=O)OCn1nnc2ccccc2c1=O (centres undefined)	1	.
Cc1ccc(Sc2ncccc2NC(=O)c2cccs2)cc1	.	-1.7
O=C(OCC1CCNCC1)c1ccc2c(c1)OCO2	4	-2.5
O=C(Nc1ncn[nH]1)c1ccccc1CCc1ccccc1	19	-0.1
CCCCCN=Cc1sc2ccc(OCC)cc2c1O	0	-0.6&7.4
CCOC(=O)N1CCC(NC(=O)Cn2c(=O)oc3ccccc32)CC1	16	.
c1ccc(CN2C3=NCCCN3c3ccccc32)cc1	-1	0.3
COc1cccc(C2=NOC(C(=O)NCc3ccccc3)C2)c1 (centres undefined)	21	.
O=C(O)c1[nH]c2ccccc2c1CNCc1ccccc1	9	0.1
CCOc1cc(C(=O)n2cc(C)cn2)cc(OCC)c1OCC	12	-1.6
O=C(O)CSc1ccccc1	6	-2.1
CC(C)CNS(=O)(=O)c1ccc(CCC(=O)NCc2ccncc2)cc1	3	0.3
O=C(CCS(=O)(=O)c1ccc(Br)s1)Nc1cccc(C(F)(F)F)c1	2	1.1
Cc1c(C(=O)NCCC(C)C)sc2ncnc(N3CCOCC3)c12	5	-4.2
OC(CN1CCNCC1)Cn1c2ccccc2c2cc(Br)ccc21 (centres undefined)	19	.
O=C(CSc1nnc(-c2ccoc2)c(-c2ccoc2)n1)c1ccc(N2CCCC2=O)cc1	15	42
COc1cccc(C2C3(C#N)C(N)=NC(OC)(OC)C23C#N)c1 (centres undefined)	13	.
O=C(O)CS(=O)(=O)Cc1ccc(Cl)s1	-15	.
CCCNS(=O)(=O)c1cc2c3c(c1)CCC(=O)N3CCC2	1	.
CCN(C(=O)CSc1ccc(Cl)cc1)C1CCCCC1	2	-0.5
CC1=CCC2C(=O)N(c3ccc(Br)c(C)c3)C(=O)C2C1 (centres undefined)	.	1.8
Cc1ccc2[nH]c(C)c(CC(=O)O)c2c1	11	.
Cc1cc(C)c(C(=O)NCCN2CCCCC2)c(C)c1	3	0.8
Cc1ccc(OCc2nnc(SCC(=O)Nc3cccc(C(F)(F)F)c3)n2-c2ccccc2)c2c1CCC2	.	-3.5
Cc1ccc2c(CC(=O)O)cc(=O)oc2c1	19	.
COc1ccc(CNC(=O)CSc2ncnc3nc[nH]c23)cc1	5	-1.1
O=C(COc1ccc2oc3ccccc3c2c1)NCc1ccc2c(c1)OCO2	0	.

(continued)
SMILES	Sa helicase inh	MgrA DNA FP
O=S(=O)(c1ccc(Cl)cc1)n1ccc(C(F)(F)F)n1	.	-1.6
O=S(=O)(c1ccc(Br)cc1)N1CCCc2ccccc21	6	0.5
CCCn1c(=O)n(CC(=O)O)c2ccccc21	4	.
O=C(COC(=O)c1ccco1)c1ccc(OC(=O)c2ccccc2)cc1	-5	0.8
CCCn1c2ccccc2c2cnn(CC(=O)NCCCN3CCCC(C)C3)c(=O)c21 (centres undefined)	-18	.
c1ccc2sc3c(-c4ccncc4)sc4ccccc4[nH]c-3nc2c1	1	-0.3
CCOc1ccc(S(=O)(=O)NC(=O)N(CC)Cc2cc3ccccc3o2)cc1	15	3.2
CC(C)CNc1nc2c(N)ncnc2n1[C@H]1O[C@@H](CO)[C@H](O)[C@@H]1O	24	.
CCn1c(=O)cc(OCC(=O)NC2CCCC(C)C2C)c2ccccc21 (centres undefined)	16	.
O=C(CN1CCN(c2ccc([N+](=O)[O-])cn2)CC1)Nc1ccc2c(c1)OCO2	.	1.8
FC(F)(F)c1nc2c(cnn2Cc2ccccc2)c2nnnn12	16	.
COC(=O)c1ccc(C(=O)OC)c(NC(=S)N2CCCC2)c1	9	-2.2
COC(=O)/C=C/CSc1nnc(-c2ccc(Cl)cc2Cl)o1	0	0.8
Cc1ccccc1-c1noc(N)c1C#N	6	.
CCCOc1ccc(C(=O)NCC2COc3ccccc3O2)cc1OC (centres undefined)	11	.
CCN(CC1COc2ccccc2O1)C(=S)Nc1ccccc1 (centres undefined)	8	0.3
Nc1nc2c(C(=O)NCc3ccncc3)nnn2c2ccccc12	-20	.
CCN(CC)CC(=O)N1N=C(c2cccs2)CC1c1ccccc1O (centres undefined)	6	.
COc1ccc(S(=O)(=O)NCCc2cc3ccc(OC)cc3[nH]c2=O)cc1	-6	0.1
O=C(Nc1ccc(Br)c(C(F)(F)F)c1)c1cccs1	.	5.6

Some values from the list.
Nc1nc2c(C(=O)NCc3ccncc3)nnn2c2ccccc12 @ Sa helicase inh = -20
Cc1ccccc1-c1noc(N)c1C#N @ Sa helicase inh = 6
O=S(=O)(c1ccc(Br)cc1)N1CCCc2ccccc21 @ Sa helicase inh = 6

Following part
SMILES	Sa helicase inh	MgrA DNA FP
O=C1CCCC2=C1C(c1ccc(Br)cc1)C1=C(N2)c2ccccc2C1=O (centres undefined)	27	.
Cc1nc(C(F)(F)F)ccc1C(=O)Sc1nnc(-c2ccc(C(F)(F)F)nc2C)o1	.	0.3
CCNc1c(NC(=O)CC23CC4CC(CC(C4)C2)C3)c(=O)oc2ccccc12	9	2.4
Cc1nn2c(-c3cccc(NC(=O)CN4CCOCC4)c3)nnc2c2ccccc12	36	.
CC(NC(=O)c1cccs1)C1CC2CCC1C2 (centres undefined)	-28	1.3
O=C(CNCCCN1CCOCC1)Nc1cccc(C(F)(F)F)c1	-5	.
C#CCSc1nc(COC)cc(=O)[nH]1	1	.
O=C(Nc1ccccc1-c1nc2ccccc2[nH]1)C1CC1	9	.
NC(=O)CSc1nc2c(c(=O)n1-c1ccccc1)SCC2	16	.
OC1C=CSc2nc3ccccc3n21 (centres undefined)	17	0.6
CCc1ccc(CNC(=O)c2cnc(N3CCCC3)nc2)cc1	-1	.
N#Cc1cccc(CS(=O)(=O)c2ccccn2)c1	.	-0.7
O=C1CCCC2=C1C(c1ccc(Cl)cc1Cl)C1=C(CCCC1=O)O2	.	0.4
COC(=O)c1c(C)oc(=O)c(Br)c1C	.	-1.7
NC(=O)Cn1c(CN2CCC(Cc3ccccc3)CC2)nc2ccccc2c1=O	-7	.
O=C(O)/C=C/C(=O)N1CCN(c2ccc(C(F)(F)F)cn2)CC1	-17	.
CN(C)c1ccc2c3c(ccc(N(C)C)c13)[C@](O)(C(F)(F)F)O[C@]2(O)C(F)(F)F	8	0.1
O=C(Nc1nnc(C2CCCCC2)s1)C1CC(=O)N(c2ccccc2)C1 (centres undefined)	4	-1.1
C=CCNC(=O)COc1ccccc1	0	3.2
N#CC1(c2ccccc2)CCc2c(sc3ncnc(Cl)c23)C1 (centres undefined)	3	.

3 compounds already listed, arranged by the value under MgrA DNA FP, lowest first:
SMILES	Sa helicase inh	MgrA DNA FP
O=C(Nc1nnc(C2CCCCC2)s1)C1CC(=O)N(c2ccccc2)C1 (centres undefined)	4	-1.1
N#Cc1cccc(CS(=O)(=O)c2ccccn2)c1	.	-0.7
C=CCNC(=O)COc1ccccc1	0	3.2

Gathered by group, the entries above containing a furan ring, fused or not (6)
SMILES	Sa helicase inh	MgrA DNA FP
O=C(NC1CCCCC1)c1ccc(Cn2cc(Br)cn2)o1	13	.
CCOc1ccc2oc(C(C)(C)C)c(C(=O)OC)c2c1	9	-0.9
O=C(CSc1nnc(-c2ccoc2)c(-c2ccoc2)n1)c1ccc(N2CCCC2=O)cc1	15	42
O=C(COc1ccc2oc3ccccc3c2c1)NCc1ccc2c(c1)OCO2	0	.
O=C(COC(=O)c1ccco1)c1ccc(OC(=O)c2ccccc2)cc1	-5	0.8
CCOc1ccc(S(=O)(=O)NC(=O)N(CC)Cc2cc3ccccc3o2)cc1	15	3.2

Remaining list, next part
SMILES	Sa helicase inh	MgrA DNA FP
O=C(/C=C/c1ccccc1)NC(=S)N1CCCCC1	4	-5.9
COc1nnnn1-c1ccccc1	12	.
Cc1ccc2cc(C#N)c(SCC(=O)N3CCCC3)nc2c1	-5	0.6
CCCCC(C)(O)C/C=C/[C@H]1[C@H](O)CC(=O)[C@@H]1CCCCCCC(=O)O (some centres undefined)	.	-0.8
CCOC(=O)c1oc2ccccc2c1COC(=O)c1cccc(C#N)c1	4	.
CC(O)(CC(=O)O)C12CC3CC(CC(C3)C1)C2 (centres undefined)	16	-8.8
O=C(Nc1cc(Oc2cccnc2)cc([N+](=O)[O-])c1)c1cc2nc(-c3cccs3)cc(C(F)(F)F)n2n1	.	-1.5
O=C(OCC(=O)N1CCN(c2ccccc2)CC1)c1cccc(F)c1	12	.
CCc1ccc(N2C(=O)NC(=O)/C(=C\c3ccc(OCC(=O)O)c(Br)c3)C2=O)cc1	.	12
CC1CC(C)CN(S(=O)(=O)Cc2ccccc2)C1 (centres undefined)	1	-1.4
O=c1[nH]nc(SCCS(=O)(=O)c2ccc(F)cc2)n1Cc1ccco1	.	2.8
Cc1cc[n+](CC(=O)N2CCCCC2)cc1	-2	2.3
CC1CN(Cc2nc3c(Br)cc(Br)cc3c(=O)[nH]2)CC(C)O1 (centres undefined)	-8	.
COc1ccccc1NC(=O)COC(=O)C1CC1	-21	3.7
Cc1ccc(-c2csc(Nc3ccccn3)n2)cc1	0	0.8
Cc1ccc(-c2nnc(SCC#N)nc2-c2ccc(C)cc2)cc1	-12	.
CCOc1ccc(C(=O)C(C)Sc2nc(-c3ccco3)c(C#N)c(=O)[nH]2)cc1 (centres undefined)	3	.
CC(C)Cc1ccc(S(=O)(=O)N2c3ccccc3CC2C)cc1 (centres undefined)	4	1.1
COCCN1CCC(OC(C)=O)C(C)C1C (centres undefined)	4	.
C=CCn1c(N)c(C#N)c2nc3ccccc3nc21	-4	.
O=C(Cn1c(C(F)(F)F)nc2ccccc21)NN=C1CCCC1	-14	.
CN(C(=O)COc1cccc(CO)c1)c1ccccc1	8	1.6
O=C(O)C(F)(F)c1ccccc1	.	2.5
N#Cc1ccc(NC(=O)c2nc3ncccn3n2)cc1	6	-1.5
CN1CCN(c2nc3c(c(=O)[nH]c(=O)n3C)n2CC(=O)c2ccc(Br)cc2)CC1	.	-2.8
C=CCn1c(C)cc(C(=O)COC(=O)Cn2[nH]c(=O)c3ccccc3c2=O)c1C	5	.
CN1CC2CCC1CC(NC(=O)c1ccccc1)C2 (centres undefined)	.	-2.1
CN1C(=O)/C(=C/c2ccco2)N(C)C1=S	1	5.7
O=C(Nc1ccccc1)c1cccnc1N1CCOCC1	11	.
O=C1CCS(=O)(=O)CC1	0	1.2
CN1CCCN(C(=O)c2ccc(Oc3ccccc3)cc2)CC1	13	-1.2
O=S(=O)(c1ccc2ccccc2c1)N1CCCCC1	11	-0.1
CCN(CC)C(=O)C1Sc2nnc(-c3ccccc3)n2NC1c1ccc(C)cc1 (centres undefined)	5	0.5
CC(O)c1ccc(OCc2c(F)cccc2Cl)cc1 (centres undefined)	.	3.0
ON/C=N/c1ncc(C(F)(F)F)cc1Cl	.	-0.6

One compound at a time, as listed above. Order of values: Sa helicase inh, MgrA DNA FP
Listed for CC(O)c1ccc(OCc2c(F)cccc2Cl)cc1 (centres undefined) : ., 3.0
Listed for ON/C=N/c1ncc(C(F)(F)F)cc1Cl : ., -0.6
Listed for N#Cc1ccc(NC(=O)c2nc3ncccn3n2)cc1 : 6, -1.5

Not all compounds are listed, so the mix of outcomes need not match the whole.
